HPGD block: inhibitors of human 15-hydroxyprostaglandin dehydrogenase (HPGD) | P15428 | purified HPGD, NADH fluorescence kinetic, PGE2 substrate | Potency, µM, for inactives: top-dose activity change, negative = inhibition, actives largely listed as inhibitors | 4.3% of 150,000 active | AID 894; active = well fitted inhibition curve with a large enough effect (not every such curve was filed as active); inconclusive = small, poorly fitted or top-dose-only effect, or another doubt; inactive = no such curve, though single readings can be large or run the other way;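 note: top concentration of the series not given in the record; plate controls included wells without enzyme; inactives centre near -10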
Target sequence (P15428 whole entry, looked up): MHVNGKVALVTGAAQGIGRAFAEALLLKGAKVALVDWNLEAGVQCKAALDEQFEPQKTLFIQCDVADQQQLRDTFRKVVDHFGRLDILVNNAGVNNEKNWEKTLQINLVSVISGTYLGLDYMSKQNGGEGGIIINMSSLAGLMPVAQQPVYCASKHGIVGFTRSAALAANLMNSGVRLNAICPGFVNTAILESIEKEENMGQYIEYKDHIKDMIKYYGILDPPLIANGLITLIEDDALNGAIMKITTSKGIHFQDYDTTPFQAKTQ
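20 nM HPGD preincubated 15 min at room temperature with compound in 50 mM Tris-HCl pH 8, 0.01% Tween 20. Started with 1 mM NAD+ and 30 uM prostaglandin E2; NADH fluorescence (360/450 nm) read 5 times over 30-s intervals, last minus first.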
* marks the source's active call; other numbers are inactive results; ? = inconclusive; & = joins results of further samples. % is set by controls: 0 for no effect and ±100 for the full control effect; potency is the fitted concentration of half-maximal effect. Some of the compounds tested. The share of hits here may be higher or lower than overall.

SMILES | HPGD block
CCCCCCN(C(=O)CCCCCN1C(=O)NC(c2ccc(-c3ccccc3)cc2)C(C(=O)OCc2ccccc2)=C1C)C(C(=O)NCCCC)c1ccc(OCC(=O)OC)cc1 (stereo unspecified) | -11%&-4%
COc1ccccc1C(=O)N/C(=C/c1ccccc1)C(=O)NC(CCSC)C(=O)O (stereo unspecified) | -2%
O=C(CN1CCN(Cc2ccccc2)CC1)c1ccc(Br)cc1 | -12%
CCOC(=O)N1CCC(n2c(=S)[nH]c3cc(OC)c(OC)cc3c2=O)CC1 | -7%
C=CCNC(=S)N1CCN(CCN=CC2=C(O)CC(c3ccco3)CC2=O)CC1 (stereo unspecified) | -10%
O=C(NCc1ccccc1)NC(=O)c1ccccc1 | -6%
Nc1ccccc1OCCOCCOCCOc1ccccc1N | -4%
COc1ccc(C(C(=O)NC2CCCC2)N(Cc2ccccc2)C(=O)CNC(=O)c2ccco2)cc1 (stereo unspecified) | 2%
O=C(OCc1c(Cl)cccc1Cl)c1cccnc1 | -6%
Cc1cccc(-c2nsc(SCC(=O)Nc3ccc4c(c3)OCO4)n2)c1 | -5%
COc1cccc(N2CCN(C(=S)Nc3cccc(C)c3)CC2)c1 | -11%
CC(C)NS(=O)(=O)c1ccc(CCC(=O)N2CCOCC2)cc1 | -2%
COC(=O)c1ccccc1NC(=O)CN1CCC(n2nnc3cc(C(F)(F)F)ccc32)CC1 | -13%
O=c1c2cc(Br)ccc2[nH]c(=S)n1Cc1cccnc1 | -3%
O=C(Cc1cccs1)Nc1cccnc1 | -6%
Cc1[nH][nH]c(=O)c1C(c1ccc(-c2ccc(Cl)cc2Cl)o1)c1c(C)[nH][nH]c1=O | ?
COc1ccc(CNC(=O)[C@H](C)NC(=O)C2CCN(S(=O)(=O)c3ccc(C)cc3)CC2)cc1 | -10%
COc1cccc(C2/C(=C(/O)c3cnn(-c4ccccc4)c3C)C(=O)C(=O)N2CCN(C)C)c1 (stereo unspecified) | 2%
Cc1ccccc1NC(=S)NCCC(c1ccccc1)c1ccccc1 | -2%
Cc1ccc(Cn2c(SCC(=O)N/N=C/c3ccc(C)o3)nc3ccccc32)cc1 | -13%
COC(=O)Cn1c(=NC(=O)c2ccc(S(=O)(=O)N3CCc4ccccc4C3)cc2)sc2cc(OC)ccc21 | ?
CN(C1CCCCC1)S(=O)(=O)Cc1ccccc1 | 18µM*
O=C(N1CCN(c2ccccc2)CC1)C12CC3CC(CC(C3)C1)C2 | -9%
Cn1c(=O)n(CCCOc2ccc(Br)cc2)c2ccccc21 | -27%
CCOC(=O)CSc1cc(C)nc(NC(C)=O)n1 | -3%

Looked up above.
Value for `CC(C)NS(=O)(=O)c1ccc(CCC(=O)N2CCOCC2)cc1` in HPGD block: -2%
Value for `O=C(NCc1ccccc1)NC(=O)c1ccccc1` in HPGD block: -6%
Value for `CCOC(=O)CSc1cc(C)nc(NC(C)=O)n1` in HPGD block: -3%
Value for `O=C(OCc1c(Cl)cccc1Cl)c1cccnc1` in HPGD block: -6%
Value for `COc1ccccc1C(=O)N/C(=C/c1ccccc1)C(=O)NC(CCSC)C(=O)O` (stereo unspecified) in HPGD block: -2%
Value for `O=c1c2cc(Br)ccc2[nH]c(=S)n1Cc1cccnc1` in HPGD block: -3%

Further compounds:
SMILES | HPGD block
CCN(CC)S(=O)(=O)c1cc(C(=O)OCC(=O)c2ccc3c(c2)NC(=O)CO3)ccc1Cl | -5%
CCCC(=O)Nc1c(C)nn(C(=O)CCC)c1C | -13%
O=C1OC(Cc2ccccn2)C(O)=C1C1=NCCCN1 (stereo unspecified) | -4%
Cc1ccc(S(=O)(=O)Nc2ccc(Cl)cc2C(=O)c2ccccc2)cc1 | -2%
O=C(CCN1CCOCC1)NCC1COc2ccccc2O1 (stereo unspecified) | -2%
O=C(Nc1ccc(Nc2ccccc2)cc1)C1CC1 | -15%
O=C(COC(=O)c1ccc([N+](=O)[O-])s1)NC(c1ccccc1)c1ccccc1 | -20%
Cc1cc2nc(SCCN3CCOCC3)[nH]c2cc1C | -10%
CN1CCCC(OC(=O)COc2ccccc2)C1 (stereo unspecified) | -3%
COC(=O)C1C(=O)C2=C(CC1C)NC(=O)CC2c1ccc(O)c(OC)c1 (stereo unspecified) | -1%
COCCNc1nc(C)nc2c1nc(-c1ccccc1)n2C1CCN(Cc2ccccc2)C1 (stereo unspecified) | ?
c1ccc2c(c1)Oc1ccccc1S2 | -9%
C[C@H]1OC(OC2C(O)[C@@H](O)C(OC3C(O)[C@@H](O)C(O)O[C@@H]3CO)O[C@@H]2CO)[C@H](O)C(O)C1N[C@H]1C=C(CO)[C@@H](O)[C@H](O)C1O (stereo partly specified) | -7%
CCn1ncc(Cl)c1C(=O)NC(C)c1ccccc1 (stereo unspecified) | -5%
COc1ccc(/C=N\NC(=O)COc2ccccc2)c(C(=O)O)c1OC | -18%
COc1ccc2nc(N/C(N)=N/C(=S)Nc3cccc(C)c3)nc(C)c2c1 | -21%
Cc1ccccc1NC(=O)CSCCN1C(=O)c2ccccc2C1=O | ?
CCOC(=O)CSc1ccc2nnc(-c3cccs3)n2n1 | ?
O=C1C2C3C=CC(C3)C2C(=O)N1c1n[nH]c(CCc2ccccc2)n1 (stereo unspecified) | -9%
CC1(C)C2CC=C(/C=N/NC(=O)c3ccccc3Br)C1C2 (stereo unspecified) | -7%
O=C(NC(NNc1ccc([N+](=O)[O-])cc1)(C(F)(F)F)C(F)(F)F)c1ccc(F)cc1 | 32µM*
Cc1cc(C)c2c(c1)SC1=NC(c3ccccc3)(C(F)(F)F)NC(=O)N12 (stereo unspecified) | -8%
CCCCN(CC)S(=O)(=O)c1ccc(C(=O)Nc2nnc(CSC)o2)cc1 | -14%
COC(=O)c1ccc(N2CCN(CC(=O)c3ccc(-c4ccccc4)cc3)CC2)c([N+](=O)[O-])c1 | ?
CCCCn1c(SCC(=O)c2ccc3c(c2)OCCO3)nnc1-c1ccco1 | -1%

A stretch from further up, as a working copy:
SMILES | HPGD block
COc1ccc(/C=N\NC(=O)COc2ccccc2)c(C(=O)O)c1OC | -18%
COc1ccc2nc(N/C(N)=N/C(=S)Nc3cccc(C)c3)nc(C)c2c1 | -21%
Cc1ccccc1NC(=O)CSCCN1C(=O)c2ccccc2C1=O | ?
CCOC(=O)CSc1ccc2nnc(-c3cccs3)n2n1 | ?

The list continues.
SMILES | HPGD block
Cc1ccc(CNC(=O)c2ccc([N+](=O)[O-])o2)cc1 | -19%
O=C(CC12CC3CC(CC(C3)C1)C2)N/N=C/c1ccncc1 | -6%
Cc1ccc(NC(=O)c2c(C)noc2C)cc1 | -7%
Cc1ccc(S(=O)(=O)CNC(=O)c2ccccc2)cc1 | -15%
CC(C)OCCCn1c(=S)[nH]c2cc3c(cc2c1=O)OCO3 | -7%
CCOC(=O)c1cnn(CC2CCCCC2)c1N | -3%
O=C(NC1CCCCC1)N1CCCC(c2nc(-c3ccc(S(=O)(=O)N4CCCC4)cc3)no2)C1 (stereo unspecified) | -9%
Nn1c(SCC(=O)Nc2ccc3c(c2)OCO3)nnc1-c1ccncc1 | -9%
CN(CC(=O)Nc1cccc2c1CCCC2)S(=O)(=O)c1ccccc1 | -16%
O=C1CCCc2ccccc2N1Cc1cccc(Cl)c1 | -17%
O=C(/C=C/c1ccccc1)NC(NC(=S)Nc1ccc(Cl)cc1)C(Cl)(Cl)Cl (stereo unspecified) | -12%
Cc1ccc2c(c1)C(N1CCCC1=O)CC(c1ccco1)N2 (stereo unspecified) | ?
O=C(Nc1ccccc1C(=O)N1CCOCC1)c1noc2c1CCCC2 | -11%
CC(C)CNC(=O)CC(=O)N/N=C/c1ccc(Br)cc1 | 16µM*
CC(C)Oc1cccc(C(=O)NC(=S)N2CCN(c3ccc(C(F)(F)F)cc3[N+](=O)[O-])CC2)c1 | -7%
COc1ccc(/C(O)=C2/C(=O)C(=O)N(CCCN(C)C)C2c2cccnc2)cc1 (stereo unspecified) | -7%
COc1ccc(-c2noc(N3CCC(C(=O)N4CCN(c5ccccn5)CC4)CC3)n2)cc1 | -19%
Cc1ccccc1-n1c(SCC(=O)c2cc(C)n(C)c2C)nnc1-c1cccnc1 | 25µM*
CCC(=O)Nc1ncc2c(n1)CC(c1ccco1)CC2=O (stereo unspecified) | 0%
CCCc1nc(SCC(=O)N2CCN(c3ccccc3)CC2)c2c(=O)n(C)c(=O)n(C)c2n1 | -11%
CCOC(=O)Nc1cccc2ccccc12 | ?
CCN1CCN(c2nc3c(c(=O)n(C)c(=O)n3C)n2CCSc2ncccn2)CC1 | -2%
COc1cccc(NC(=O)C2CCCCC2)c1 | -28%
CC(C)(C)c1ccc(C(=O)Nc2ccc([N+](=O)[O-])cn2)cc1 | -12%
N#C/C(=C\c1ccc(OCc2ccc(C(=O)O)cc2)cc1)C(=O)N1CCOCC1 | 14µM*

(list continues)
SMILES | HPGD block
Cn1c(CSc2nc3ccccc3n2C)nc2ccccc21 | -5%
COc1ccc2nc(Nc3sc4c(c3C(N)=O)CCCC4)sc2c1 | 16µM*
CCCNS(=O)(=O)c1cccn1-c1ncc(C(F)(F)F)cc1Cl | -8%
Cc1ccc(Cl)cc1N1CCN(S(=O)(=O)c2ccc3c(c2)OCCO3)CC1 | -4%
CN(C)Cc1ccccc1-c1ccc2ncnc(NCc3ccccc3)c2c1 | -15%
Cc1cc(N2CCN(c3ccc([N+](=O)[O-])c4cccnc34)CC2)c2ccccc2n1 | -3%
CCOC(=O)C(Cc1ccc(O)cc1)NC(=O)CNC(=O)C(CC(C)C)NC(=O)OC(C)(C)C (stereo unspecified) | 0%
Cc1ccccc1C(=O)Nc1cccc(-c2nnc(SCC(=O)O)n2C)c1 | -20%
COC(=O)c1ccc(CSc2nnnn2-c2ccccc2)o1 | -21%
Cn1cccc1/C=N/NC(=O)Cn1cnc2ccccc21 | -11%
CCCCNc1nc(C)nc2c1nc(-c1ccccc1)n2CCN(C)C | ?
Cc1c(C(=O)N2CCN(S(C)(=O)=O)CC2)oc2ccccc12 | -1%
CCCNC(=O)CNC(=S)N(Cc1cc(OC)c(OC)c(OC)c1)C1CCCC1 | 2%
CN1CCC[C@@H]1c1cccnc1.O=C(O)c1ccccc1O.O=C([OH2+])c1ccccc1O.O=C([OH2+])c1ccccc1O.O=C([OH2+])c1ccccc1O.[Cu] | ?
CC(C)CNC(=S)N1CCN(C(c2ccccc2)c2ccccc2)CC1 | -11%
CC(=O)Nc1ccc2nc(-c3ccc(Br)o3)[nH]c2c1 | -22%
CCCCCCC12CCC(C(=O)O)(CC1)CC2 | -2%
O=c1[nH]c2cc3c(cc2cc1CN(CCCO)Cc1nnnn1Cc1ccc(F)cc1)OCO3 | ?
CCN(CC)c1ccc(NC(=O)Cn2nnc(-c3cccc(OC)c3OC)n2)c(C)c1 | -2%
CC1CC(NC(=O)Cc2ccc(Br)cc2)CC(C)(C)C1 (stereo unspecified) | -5%
CNC(=O)c1ccccc1NC(=O)c1ccc(C)c(S(=O)(=O)N2CCCCC2)c1 | 3%
COc1cc(N(C)C)c([N+](=O)[O-])cc1C(=O)NC(C)CNc1ccc([N+](=O)[O-])cc1Cl (stereo unspecified) | -20%
CC(C)CNC1=CC(=O)CC(c2ccco2)C1 (stereo unspecified) | -24%
CCN(Cc1nc2ccccc2c(=O)[nH]1)Cc1cc(=O)oc2cc(OC)ccc12 | -14%
Cc1nc2scc(-c3ccc(Cl)cc3)c2c(=O)o1 | -2%

Other compounds.
SMILES | HPGD block
C/C(CC(=O)Nc1cccc(F)c1)=N\NC(=O)C(=O)NC1CCCCC1 | -5%
CC1=C(C(=O)Nc2ccccc2C)C(c2cccnc2)n2nc(CCCO)nc2N1 (stereo unspecified) | -7%
O=C(CN1CCN(Cc2ccc(F)cc2Cl)C1=O)NCCCN1CCOCC1 | -7%
Cc1ccc(NC(=S)NC(NC(=O)N(C)C)C(Cl)(Cl)Cl)cc1 (stereo unspecified) | -11%
O=c1oc2c(CN3CCOCC3)c(O)ccc2c2c1CCC2 | ?
COCc1nnc(NC(=O)c2cc(C(=O)OC)cc([N+](=O)[O-])c2)s1 | -16%
COCCn1c(SC(C(=O)Nc2cc(C)ccc2OC)c2ccccc2)nnc1-c1ccc(Cl)cc1 (stereo unspecified) | -4%
COc1cccc(C2CC(C(F)(F)F)n3ncc(C(=O)Nc4c(C)n(C)n(-c5ccccc5)c4=O)c3N2)c1 (stereo unspecified) | 7%
CCOC(=O)c1ccc(NC(=O)c2ccc(CO)c(C(=O)NC3CCN(C(=O)OCC)CC3)c2)cc1 | -4%
Cc1ccc(CNC(=O)c2cc3c(C)nc4ccccc4c3o2)cc1 | -8%
Cc1cc(N2CCN(C(c3ccccc3)c3ccc(Cl)cc3)CC2)n2ncnc2n1 (stereo unspecified) | 1%
O=C(CSc1nnc(-c2ccc(Br)cc2)o1)N1CCN(C(=O)c2ccco2)CC1 | -12%
O=S(=O)(NCCSc1ccccn1)c1ccc(Cl)cc1 | -1%
CCCCCCCNC(=O)C1CC(=O)N(C)C(=Nc2ccc(OC)cc2)S1 (stereo unspecified) | -19%

Gathered by group: the entries above containing two or more sulfur atoms.
SMILES | HPGD block
Cc1cccc(-c2nsc(SCC(=O)Nc3ccc4c(c3)OCO4)n2)c1 | -5%
COC(=O)Cn1c(=NC(=O)c2ccc(S(=O)(=O)N3CCc4ccccc4C3)cc2)sc2cc(OC)ccc21 | ?
CCOC(=O)CSc1ccc2nnc(-c3cccs3)n2n1 | ?
CCCCN(CC)S(=O)(=O)c1ccc(C(=O)Nc2nnc(CSC)o2)cc1 | -14%
COc1ccc2nc(Nc3sc4c(c3C(N)=O)CCCC4)sc2c1 | 16µM*
O=S(=O)(NCCSc1ccccn1)c1ccc(Cl)cc1 | -1%

Rewritten with each value named: entries from further up.
O=S(=O)(NCCSc1ccccn1)c1ccc(Cl)cc1
- HPGD block: -1%
O=C(CSc1nnc(-c2ccc(Br)cc2)o1)N1CCN(C(=O)c2ccco2)CC1
- HPGD block: -12%
CCOC(=O)c1ccc(NC(=O)c2ccc(CO)c(C(=O)NC3CCN(C(=O)OCC)CC3)c2)cc1
- HPGD block: -4%

Screening data: PubChem, National Center for Advancing Translational Sciences (NCATS)
